Screens: PubChem, The Scripps Research Institute Molecular Screening Center
OX1R antag: blocks the human orexin 1 receptor. CHO/OX1R cells, Fluo-8 calcium fluorescence, orexin A. actives 0.43% (n = 330,000). inhibition, % at 5 µM. O43613;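 active = inhibition above its plate's threshold, mean inhibition of all tested compounds on the plate plus 3 SD, cut at about 37% in these data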;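 also: 0% = orexin A challenge wells and 100% = SB-334867-A antagonist wells; not every result past the cut was called active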
Target sequence (O43613 whole entry, looked up): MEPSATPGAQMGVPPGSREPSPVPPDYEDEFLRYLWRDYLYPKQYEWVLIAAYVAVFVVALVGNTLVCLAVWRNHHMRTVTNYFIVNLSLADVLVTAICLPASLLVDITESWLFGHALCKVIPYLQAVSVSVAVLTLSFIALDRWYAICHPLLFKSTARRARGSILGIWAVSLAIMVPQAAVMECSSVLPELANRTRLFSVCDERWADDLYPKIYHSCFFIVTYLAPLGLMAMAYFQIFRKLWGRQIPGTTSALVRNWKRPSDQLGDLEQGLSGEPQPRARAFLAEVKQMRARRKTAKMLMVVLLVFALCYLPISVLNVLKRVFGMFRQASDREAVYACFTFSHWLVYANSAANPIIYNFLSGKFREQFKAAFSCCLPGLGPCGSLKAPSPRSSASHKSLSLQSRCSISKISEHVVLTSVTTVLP
An asterisk follows results filed as active. These rows are one share of the data, and most or all hits are left out here.

SMILES	OX1R antag
O=C(/C=C\c1cccs1)c1c(O)ccc2ccc(=O)oc12	-30.1
CC1CCN(C(=S)NC(=O)c2ccccc2)CC1	-9.9
CN1CCN(S(=O)(=O)c2ccc(NC(=O)c3cccc(S(=O)(=O)N4CCCC4)c3)cc2)CC1	-28.1
O=C(CC(c1ccco1)S(=O)(=O)c1ccccc1)c1ccc(F)cc1 (centres undefined)	-20.3
COC(=O)c1ccccc1NC(=O)c1cnn2cccnc12	-12.8
NS(=O)(=O)c1ccc(CNC(=S)Nc2ccc(F)c(Cl)c2)cc1	12.8
O=C(O)COc1ccc(/C=C/C(=O)c2ccc3ccccc3c2)cc1	-14.1
Cc1noc(C)c1C(=O)Nc1nccs1	-12.5
O=C(Nc1ccncc1)c1ccc([N+](=O)[O-])cc1Cl	-6.6
COc1ccc(CNC(=O)c2nn(C)c3c2CS(=O)(=O)c2ccccc2-3)cc1	-29.6
CC(C)Oc1ccc(/C=N/NC(N)=S)cc1	6.8
Cn1c(=O)c2c(nc(Br)n2C/C=N/NC(N)=S)n(C)c1=O	2.6
O=[N+]([O-])c1cc(/C=N/N2CCOCC2)cs1	-5.5
CCOC(=O)Cc1csc(NC(=O)CSc2nc(-c3ccccc3)c(C#N)c(=O)[nH]2)n1	-15.9
Cc1ccc(/C(COc2ccccc2O)=N\O)cc1	-13.0
COc1ccc(-c2nnc(SCC#N)o2)cc1	-17.8
COc1ccc(/C=C\C(=O)CC(O)(c2ccccc2)C(F)(F)F)cc1 (centres undefined)	-13.7
COc1ccc2[nH]c(C(=O)NCCc3ccccc3)cc2c1	-14.0
FC(F)(F)c1ccc(-c2noc(CN3CCCN(C4CCCCC4)CC3)n2)cc1	-8.9
CSc1ccccc1C(=O)Nc1nc2ccccc2[nH]1	-16.1
CC(=O)N1N=C(c2ccc3ccccc3c2)OC12CCCC2	-14.5
Cc1ccc(C(=O)COC(=O)CN2C(=O)C3C4CCC(C4)C3C2=O)cc1[N+](=O)[O-] (centres undefined)	-7.7
CCOc1ccc(NC2=NCC(=O)N2Cc2cccs2)cc1	-26.1
CN(C)c1cccc(C(=O)Nc2nc3ccccc3[nH]2)c1	-23.0
CCOCCCn1c(SCC(=O)Nc2cc(C(C)(C)C)nn2-c2ccccc2)nc2ccccc2c1=O	-20.5

Quoted at random: 7 entries already listed, in no set order.
SMILES	OX1R antag
Cn1c(=O)c2c(nc(Br)n2C/C=N/NC(N)=S)n(C)c1=O	2.6
O=C(Nc1ccncc1)c1ccc([N+](=O)[O-])cc1Cl	-6.6
COc1ccc2[nH]c(C(=O)NCCc3ccccc3)cc2c1	-14.0
Cc1ccc(/C(COc2ccccc2O)=N\O)cc1	-13.0
COc1ccc(/C=C\C(=O)CC(O)(c2ccccc2)C(F)(F)F)cc1 (centres undefined)	-13.7
Cc1noc(C)c1C(=O)Nc1nccs1	-12.5
FC(F)(F)c1ccc(-c2noc(CN3CCCN(C4CCCCC4)CC3)n2)cc1	-8.9

Next structures follow.
SMILES	OX1R antag
COc1cc(/C=C2/SC(=Nc3ccc(O)cc3)NC2=O)cc(OC)c1O	-1.1
NCCCSC1=NCCCN1	7.2
COCC(=O)N(Cc1cc2cc(OC)ccc2[nH]c1=O)c1ccccc1OC	-19.2
Cc1cc(C)c(S(=O)(=O)NCC23C=CC(O2)C2C(=O)N(c4ccccc4)C(=O)C23)c(C)c1 (centres undefined)	-20.3
Cc1ccccc1NC(=O)c1cccc(NC(=O)c2ccco2)c1	-11.0
CC(=O)Oc1ccc(/C=N/NC(=O)CCSc2ccccc2)cc1	-9.0
O=C1c2ccccc2NC2(CCCCC2)N1c1ccc(O)cc1	-10.0
COc1cccc(CC(=O)Nc2ccc3c(c2)CCC3)c1	-10.9
Clc1cccc(OCCCCN2CCCCC2)c1	-1.7
COc1ccc(CN(Cc2ccccn2)S(=O)(=O)c2ccc(-n3cnnn3)c(OC)c2)cc1	-9.3
COc1ccccc1OCCC(=O)N1CCN(c2ccccc2OC)CC1	-13.1
O=S(=O)(Cc1noc(-c2ccccc2Cl)n1)c1ccccn1	-9.8
O=C(COc1ccc2c(-c3ccccc3)cc(=O)oc2c1)NCc1cccs1	-3.2
CCc1ccc(C(=O)COC(=O)C(Cc2ccccc2)NC(=O)c2ccc(Cl)cc2)cc1 (centres undefined)	-1.8
Cc1ccc(NC(=O)CCN2C(=O)c3ccccc3S2(=O)=O)cc1C	-19.2
COC(=O)c1sccc1-n1cccc1C(=O)NCc1ccccc1	-17.1
Cc1ccc(Nc2nc(CSc3nnnn3C)cs2)cc1	-14.5
O=C(CSc1nnc(C2CC2)n1Cc1ccco1)NCC(F)(F)F	-1.7
Nn1c(SCC(=O)NC(=O)NCc2ccco2)nnc1-c1ccc(OC(F)F)cc1	-3.4
CC(=O)N1CCOCCOCCN(C(C)=O)CCOCCOCC1	3.0
COc1ccc(Nc2nnc(SCC(=O)NC(=O)Nc3ccc4c(c3)OCCO4)s2)cc1	-11.9
Cc1cc(C)n2cc(COc3ccc4ccccc4c3)nc2n1	-13.3
CCN(CC)c1nc2ccccc2nc1C(C#N)C(=O)NCCCOC (centres undefined)	-37.4
CCOc1ccc(NC(=O)c2ccc(CSc3nnc(C)s3)cc2)cc1	-11.7
Cc1ccc(OCC2Cn3c(nc4c3c(=O)[nH]c(=O)n4C)O2)cc1C (centres undefined)	-19.7
(more compounds)
SMILES	OX1R antag
CCn1c(=O)n(CC)c2cc(N3CCCC3)c(NC(=O)c3c(F)cccc3F)cc21	-25.6
Cc1ccc(NS(=O)(=O)c2ccc(CCC(=O)NCc3cccnc3)cc2)cc1	-16.9
COC(=O)CSc1n[nH]c(-c2cccnc2)n1	3.4
O=C(CCN1C(=O)/C(=C/c2ccccc2Cl)SC1=S)Nc1ccccc1C(=O)O	1.0
Cc1cccc(-n2ncc3c(N4CCCC4)ncnc32)c1	-17.9
Cc1ccc2nc(NC(=O)C3CCN(S(=O)(=O)c4cccnc4)CC3)sc2c1	-24.2
O=C(COc1ccccc1Cl)NC(=O)NC1CCCCC1	-12.7
Cc1ccc(N2CCN(Cc3ccccc3)CC2=O)c(C)c1	2.0
O=c1c2[nH]c3ccc(F)cc3c2ncn1C1CCCCC1	-23.8
Cc1cccc(Nc2nc(CC(=O)O)cs2)c1	-21.4
NC(=O)C1CCN(C(=O)Cc2ccsc2)CC1	2.6
CCOC(=O)c1ccc(CSc2nnc(N)s2)cc1	-11.0
O=C(COC(=O)CCC1CCCC1)Nc1ccccc1Sc1ccccc1	-6.9
CC(C)=CCCC(C)N(C=O)C(C)CCC=C(C)C (centres undefined)	-10.0
COC(=O)C1C(=O)/C(=C/N(C)C)C(=O)CC1(C)C (centres undefined)	-22.4
Cc1ccc(C)c(S(=O)(=O)N2CCN(CC(=O)Nc3cc(C)on3)CC2)c1	-18.0
O=C(OCc1cc(Cl)ccc1OC(F)F)c1cccnc1	-5.7
CCOc1cccc(C(=O)Nc2cccnc2)c1	-19.7
CCOc1ccc(NC(=O)N2CCN(S(C)(=O)=O)CC2)cc1	-6.0
O=S(=O)(c1ccc(Cl)cc1)N1CCCCCC1	-17.6
COc1ccc(-c2cc3onc(-c4c(Cl)cccc4Cl)c3c(=O)n2C)cc1	-17.2
Cc1c(C(=O)OC(C)C)nnn1-c1nonc1N	-1.6
OCCC1CN(Cc2cc(F)ccc2-n2cccn2)CCN1C1CCCC1 (centres undefined)	-17.8
Cn1c(=O)c2c(nc(N3CCN(Cc4ccccc4)CC3)n2CC(=O)c2ccccc2)n(C)c1=O	-24.4
Cc1cccc(CS(=O)(=O)Cc2ccc(C(=O)NCCN3CCCCC3C)o2)c1 (centres undefined)	-22.1
The listing continues:
SMILES	OX1R antag
COc1cc(-c2noc(C3CCCN(C(=O)c4ccccc4)C3)n2)cc(OC)c1OC (centres undefined)	-17.4
Cc1ccc(NC(=O)C(C)OC(=O)/C=C/c2ccccc2)cc1S(=O)(=O)N1CCOCC1 (centres undefined)	-27.4
C#CCOC(=O)C(NC(=O)c1ccccc1)=C(C)C	-16.0
C/C(=N\OC(=O)c1c(-c2ccccc2Cl)noc1C)c1nccs1	-21.5
CCN(Cc1ccccc1)S(=O)(=O)c1csc(C(N)=O)c1	-5.8
O=C(COC(=O)C1CCN(S(=O)(=O)c2c(Cl)cccc2Cl)CC1)NCc1ccco1	-11.8
FC(F)(F)c1ccc(N2CCN(c3ncnc4c3nnn4Cc3ccccc3Cl)CC2)cc1	-13.1
O=C(CSc1nc2nc(-c3cccs3)cc(C(F)(F)F)c2c(=O)[nH]1)NCc1ccco1	-22.3
CCCCn1c(N)c(Sc2ccc([N+](=O)[O-])cc2)c(=O)[nH]c1=O	-3.5
CC(=O)NC1(C(F)(F)F)C(=O)Nc2c1c(=O)[nH]c(=O)n2Cc1ccco1 (centres undefined)	-10.5
CC(=O)c1ccc(N2CCN(S(=O)(=O)c3cn(C)cn3)CC2)cc1	-4.4
CCC(=O)n1nc(-c2ccc(Cl)cc2)nc1NCc1ccccc1	7.7
Cc1ccc(NC(=O)CCC(=O)N/N=C/c2cccs2)cc1C	-5.3
CCC(=O)N(Cc1cc2ccccc2[nH]c1=O)C(C)C	-13.4
COc1ccccc1/C=C/C=N\N1CCN(Cc2ccccc2Cl)CC1	-35.0
CCS(=O)(=O)c1ccc(O)c(NC(=O)c2cc(OC)c(OC)c(OC)c2)c1	-5.1
CCOc1ccc2ccccc2c1/C=N/NC(=O)CNC(=O)c1ccccc1O	-0.3
COc1ccc(NC(=O)c2ccc(C#CC(C)(C)O)cc2)cc1	-12.5
Nc1cccc(NC(=O)c2ccco2)c1	-3.3
CCOC(=O)c1c(NC(=O)COC(=O)c2ccc(O)cc2)sc(C(=O)N(C)C)c1C	-21.8
O=C(NC1CCCC1)C(c1ccc(Cl)cc1)N1CCOCC1 (centres undefined)	-14.4
O=C(C1CCCCC1)N1CCN(c2nc(-c3ccc(F)cc3)cs2)CC1	-20.4
Cc1c(Cl)ccc2c1NC(=O)C21NC(CCC(N)=O)[C@H]2C(=O)N(c3ccc(Cl)cc3)C(=O)[C@H]21 (some centres undefined)	2.0
Cc1cc(=O)oc2cc(OCC(=O)Nc3nnc(CC(C)C)s3)ccc12	-36.2
COc1ccc(NC(C)=O)cc1NC(=O)CSc1nnc(-c2ccccc2)n1N	-2.1
Other compounds follow:
SMILES	OX1R antag
O=[N+]([O-])c1ccccc1/C=N/n1c(-c2cccnc2)n[nH]c1=S	6.4
CC(C)C(C)NC(=O)COC(=O)/C=C/c1ccc(S(=O)(=O)N2CCc3ccccc32)cc1 (centres undefined)	-16.2
CC1(C)C/C(=N/Nc2ccc([N+](=O)[O-])cc2[N+](=O)[O-])C(C)(C)O1	-6.9
CCc1ccccc1N(C(=O)CCC(=O)Nc1cc(C)on1)C(C(=O)NC1CCCC1)c1ccco1 (centres undefined)	-25.1
COc1cccc(-n2nnc3c(=O)n(Cc4ccc(F)cc4)cnc32)c1	-16.5
COC(=O)C1=C(N)Oc2cc(C)n(CCCn3ccnc3)c(=O)c2C1c1cccc(Cl)c1 (centres undefined)	-10.0
O=C(NCCCN1CCCC1=O)c1ccc2c(=O)n(Cc3ccco3)c(=S)[nH]c2c1	-17.5
CCCNC(=O)c1ccc(N2CCC3(CC2)CC(c2ccccc2)=NO3)c(NC(=O)c2cccc(C)c2)c1	-9.0
CC(C)C(C)NC(=O)CN1C(=O)NC(C)(c2ccc3ccccc3c2)C1=O (centres undefined)	-26.1
COC(=O)c1ccc([N+](=O)[O-])c(CS(=O)(=O)c2ccc(Cl)cc2)c1	-2.4
C=CCCC(=O)N(C)CCO	0.1
COc1cccc(CNn2cnnc2)c1OCc1ccccc1F	-13.7
Cc1cc(C)c2c(N)c3cccc(C)c3nc2n1	-8.6
CCCNC(=O)c1onc(CSc2ccc(Cl)cc2)c1C(=O)NC(C)C	-38.2
O=C(CCn1c(=O)[nH]c2ccsc2c1=O)N(CCc1ccccc1)Cc1ccccc1	-6.0
S=c1ccc2ccccc2[nH]1	-17.8
O=C(Nc1ccc(NC(=O)c2ccc(S(=O)(=O)c3ccccc3)cc2)cc1)c1ccccc1	-5.9
Cc1ccc(OCC(=O)NNC(=O)c2cc(C)[nH]n2)cc1	-16.1
CC(C)C(NC(=O)OCc1ccccc1)C(=O)NCc1ccc(C(=O)O)cc1 (centres undefined)	2.8
Cc1c(S(=O)(=O)N2CCN(C(c3ccccc3)c3ccccc3)CC2)c(=O)n(C)c(=O)n1C	-31.9
Cc1ccc(NC(=O)C2=C(C(=O)O)CCCC2)cc1F	-12.1
O=S(=O)(Nc1nccs1)c1cnc(Cl)c(Br)c1	-1.4
Cc1cc(C)n2c(SCC(=O)Nc3cc(C)on3)nnc2n1	-10.7
O=C1c2ccccc2C(=O)N1CCSc1ncn[nH]1	-14.4
COc1ccc(OC)c(NC(=O)CSc2nnc(-c3ccco3)n2-c2ccc(C(=O)O)cc2)c1	-23.2
Next section.
SMILES	OX1R antag
COc1cc(C(=O)NCC2CCCO2)ccc1OCc1ccc(Cl)cc1Cl (centres undefined)	-13.5
Cc1ccc(S(=O)(=O)/C=C/c2ccccc2)cc1	-9.7
CCC(C)c1ccc(OCC(=O)Nc2cccc(C(=O)Nc3ccc(C(=O)O)cc3)c2)cc1 (centres undefined)	35.4
Cc1cccc(N2CCN(C(=S)NC3CCCCC3)CC2)c1C	-7.4
CC(C)c1ccc(-c2c(C#N)c(N)nc(SCC(=O)N3CCCCC3)c2C#N)cc1	-5.5
CCn1cc(CN2CCCC(CO)(Cc3ccc(F)cc3)C2)c2ccccc21 (centres undefined)	-21.0
S=C(N/N=C1\C2CN3CCN(C2)CC1(c1ccccc1)C3)Nc1ccccc1	-19.9
NCCNc1ccc2nnnn2n1	-3.5
Cc1ccc([N+](=O)[O-])cc1N(CC(=O)NC1CCCC1)S(C)(=O)=O	-7.6
Cc1onc(-c2ccccc2Cl)c1C(=O)N1CC(C)OC(C)C1 (centres undefined)	-1.7
COc1ccc(-c2noc(CCc3ccccc3)n2)cc1	-17.0
CC(C)CN(C(=O)c1cccc(Cl)c1)c1c(N)n(CC(C)C)c(=O)[nH]c1=O	-18.1
Cc1ccc(C(=O)N2CCN(c3ccccn3)CC2)cc1C	-8.1

Gathered by group, the compounds so far containing bromine
SMILES	OX1R antag
Cn1c(=O)c2c(nc(Br)n2C/C=N/NC(N)=S)n(C)c1=O	2.6
O=S(=O)(Nc1nccs1)c1cnc(Cl)c(Br)c1	-1.4
